Screening data: PubChem, several laboratories
AF4-AF9 inh = inhibitors of AF4 peptide binding to AF9, primary screen, biochemical, AlphaScreen, biotin-AF4 peptide, FLAG-AF9, single point; inhibition, % at 10 µM; 350,000 tested, 0.47% active; AID 651704, 2012; Protein AF-9 (Homo sapiens), P42568;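 active means every replicate reaching a set inhibition limit, whatever the replicate mean, cut at about 25% in these data; inconclusive means mean inhibition reaches that limit but some replicates miss it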;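 further: 0% = plate neutral control median and 100% = total signal loss; the record names both 10 and 1 µM as test concentration; the first replicate is given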
Target sequence (P42568 whole entry, looked up): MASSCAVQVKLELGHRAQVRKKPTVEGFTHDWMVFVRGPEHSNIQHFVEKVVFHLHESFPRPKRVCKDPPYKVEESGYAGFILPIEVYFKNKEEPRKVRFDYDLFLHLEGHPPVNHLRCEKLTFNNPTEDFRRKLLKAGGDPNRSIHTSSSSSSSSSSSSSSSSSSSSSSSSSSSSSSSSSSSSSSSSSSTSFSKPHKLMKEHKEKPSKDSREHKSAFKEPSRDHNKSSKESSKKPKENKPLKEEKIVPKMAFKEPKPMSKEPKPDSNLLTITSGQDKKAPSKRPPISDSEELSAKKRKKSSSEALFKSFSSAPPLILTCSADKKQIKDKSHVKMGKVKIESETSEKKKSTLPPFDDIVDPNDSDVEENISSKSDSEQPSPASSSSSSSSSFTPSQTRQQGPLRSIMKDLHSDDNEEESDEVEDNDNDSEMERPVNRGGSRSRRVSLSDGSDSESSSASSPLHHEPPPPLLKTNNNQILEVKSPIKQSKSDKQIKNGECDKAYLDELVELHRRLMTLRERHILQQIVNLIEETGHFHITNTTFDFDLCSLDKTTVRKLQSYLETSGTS
RanGTP-Impb inh = inhibitors of RanGTP-importin-beta interaction, primary screen, biochemical, FRET, CFP-Ran, YFP-importin-beta, homogeneous. cell-free CFP-Ran/YFP-importin-beta FRET ratio. 300,000 tested, 1.1% active. AID 2216, 2009. inhibition, % (concentration not given with the values);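 active means most replicates above 15%; inconclusive means exactly half above 15%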;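 further: 0% = DMSO wells and 100% = Ran loaded with GDP instead of GTP; wells of about 40 µL received 100 nL stock; the first replicate is given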
Vif TR-FRET = inhibitors of Vif binding to APOBEC3G peptide, primary screen, biochemical, TR-FRET, GST-Vif 1-94, biotin-A3G peptide, dose response retest (AID 1117319); Virion infectivity factor (Human immunodeficiency virus type 1 group M subtype B (isolate …; TR-FRET GST-Vif / biotin-A3G peptide binding; higher % means a stronger effect; test concentration not given here; strong numbers were not always called active; inhibition, %; hits with a dose series show IC50 in µM; 260,000 tested, 0.57% active;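 active means above the screen mean plus three standard deviations and confirmed in dose response; inconclusive means results disagree or hit not tested in dose response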;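 further: Vif residues 1-94 fused to GST binding biotinylated APOBEC3G peptide 110-148; 0% = full assay without inhibitor and 100% = GST in place of GST-Vif; retest series ran down from 100 µM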
UCH37 DUB inh = inhibitors of human UCH37 deubiquitinase, primary screen, biochemical, Ub-AMC cleavage, fluorescence; Ubiquitin carboxyl-terminal hydrolase isozyme L5 (Homo sapiens), Q9Y5K5; purified proteasome/UCH37; inhibition, % (test concentration not listed); 330,000 tested, 0.33% active; AID 588478, 2011;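 active means mean of two replicates above 20%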;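 further: 0% = compound-free wells with enzyme and 100% = wells lacking proteasome; stock transfer was 100 nL into about 20 µL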
Target sequence (Q9Y5K5 whole entry, looked up): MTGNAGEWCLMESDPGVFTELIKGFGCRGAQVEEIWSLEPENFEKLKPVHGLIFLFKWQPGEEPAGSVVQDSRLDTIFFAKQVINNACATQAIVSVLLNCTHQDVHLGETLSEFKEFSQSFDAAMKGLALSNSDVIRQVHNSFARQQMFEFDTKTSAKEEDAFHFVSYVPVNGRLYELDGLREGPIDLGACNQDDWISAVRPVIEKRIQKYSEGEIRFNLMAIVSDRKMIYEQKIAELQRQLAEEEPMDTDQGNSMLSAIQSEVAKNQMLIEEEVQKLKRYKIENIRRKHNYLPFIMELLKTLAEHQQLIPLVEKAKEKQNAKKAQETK
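Reagent: Ub-AMC substrate; assay system: Proteasome-associated human UCH37 deubiquitinase; controls: no-proteasome and no-compound wells; read-out: % inhibition of Ub-AMC cleavage fluorescence; timing: 30 min preincubation with enzyme, 25 min cleavage at room temperature; signal: AMC fluorescence from Ub-AMC cleavage, excitation 355 nm, emission 460 nm; buffer or medium: Tris-HCl pH 7.4 plus ovalbumin, ATP-MgCl2, DTT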
FGF22 binding = binders of human FGF22 protein, primary screen, FGF22 synaptogenesis inhibitor project, biophysical, thermal shift, single point. 340,000 tested, 1.5% active. recombinant FGF22 thermal shift, SYPRO orange fluorescence; percent of sucrose octasulfate shift, DMSO zero. Fibroblast growth factor 22 (Homo sapiens), Q9HCT0. AID 651658, 2012. calls only at 9.99 µM;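 active means melting point raised past a set limit in the mean and every replicate; inconclusive means no clear call; three in four hits are not shown here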
Target sequence (Q9HCT0 whole entry, looked up): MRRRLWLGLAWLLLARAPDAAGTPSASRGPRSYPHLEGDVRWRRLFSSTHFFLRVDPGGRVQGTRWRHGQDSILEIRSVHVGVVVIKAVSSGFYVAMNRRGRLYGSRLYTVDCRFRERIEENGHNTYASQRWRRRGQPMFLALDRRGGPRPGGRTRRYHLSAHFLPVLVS
Ecoli growth = E. coli growth inhibition, primary screen, OD600 | Escherichia coli growth, 23 h; hits give low values | OD600 absorbance (concentration not given with the values) | 330,000 tested, 0.21% active;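 active means OD600 absorbance below the run mean of sample wells minus 3.6 SD, in any replicate, cut at about 0.56 in these data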;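 further: stock transfer was 300 nL into about 60 µL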
HNF4A DNA FP = change in binding of human HNF4A to DNA, primary screen, biochemical, fluorescence polarization, FITC-DNA; activity change, % at 10 µM; 360,000 tested, 0.3% active; 1 h; in the data active means activity change above about 30%, passing the limit was not always enough;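 further: controls were the assay level and a saturating level of protein; the project sought stronger binding though the title names inhibitors; some compounds called inactive have numbers as strong as hits; positive values seem to mean higher polarization but the record does not say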
* hit, by the source's call; i = inactive; ? = inconclusive; . = not tested or not shown; + = active, no number. The list is partial; rates above refer to the full screens.

SMILES	AF4-AF9 inh	RanGTP-Impb inh	Vif TR-FRET	UCH37 DUB inh	FGF22 binding	Ecoli growth	HNF4A DNA FP
O=C(CCNC(=O)c1ccco1)Nc1ccc(Cl)cc1	1.6	-4.9	.	2.5	.	0.66	1.3
Cc1cccn2c(=O)c3cc(S(=O)(=O)c4ccc(F)cc4)c(=N)n(Cc4ccco4)c3nc12	-2.9	84*	15%	-4.9	i	0.7	-3.7
Cc1ccccc1S(=O)(=O)Cc1ccc(C(=O)NCCN2CCCCC2C)o1 (stereo not given)	.	5.4	4%	6.6	.	0.66	24
O=c1c2ccccc2nnn1CSc1ccc2c(c1)OCCO2	.	-4.7	27%	3.7	.	0.65	0.8
Cc1cccc(NS(=O)(=O)c2c(C)[nH]c(C)c2C(=O)N2CCCC2)c1	1.5	-3.5	.	2.5	i	0.66	-2.7
CC(=O)NS(=O)(=O)c1ccc2c(c1)C(=O)c1cc(S(=O)(=O)NC(C)=O)ccc1-2	0.4	3.4	2%	7.3	i	0.66	-0.5
O=C(NCCCN1CCN(Cc2ccccc2)CC1)C1CCN(S(=O)(=O)N2CCCC2)CC1	-21	-2.9	7%	1.5	.	0.65	-2.2
CCCN1C(=O)c2cc(C(=O)NCc3ccc(OC)cc3)ccc2C1O (stereo not given)	3.1	-2.4	?	3.8	i	0.74	-5.7
CCOc1ccc(NC(=O)c2nccnc2CO)cc1	.	-4.3	10%	2.8	.	0.65	1.5
CN(Cc1nc(Cc2ccccc2F)no1)CC1(N2CCOCC2)CCCCC1	-3.6	-1.3	-1%	4.6	i	0.65	-1.9
COCCN(CC(=O)Nc1cccc(C)c1C)C(=O)C1CCN(S(=O)(=O)c2ccccc2)CC1	-2.4	.	.	0.0	i	0.67	-0.4
CC(OC(=O)c1ccccc1C(=O)O)c1ccccc1 (stereo not given)	-2.8	.	6%	.	i	.	-2.2
O=C(Nc1cccc(C(F)(F)F)c1)c1cc(-c2ccc(F)cc2)on1	.	-1.5	-6%	1.4	.	0.7	0.6
COc1ccc(CC(=O)NC(C)c2ccc3ccccc3c2)cc1 (stereo not given)	-2.2	-5.4	.	-0.3	i	0.64	-2.2
c1ccc2c(c1)ncn2CCC1CCCCC1	.	0.3	-2%	-0.2	.	0.67	-1.2
CC/C(=N\NC(=O)c1cc(C)oc1C)c1ccc(OC(F)F)cc1	-1.5	.	7%	.	i	.	-2.0
Cc1cc(=O)[nH]c(Nc2cccc(Br)c2)n1	0.6	7.2	-9%	3.4	i	0.61	3.2
Cc1nc(C(F)(F)F)ccc1C(=O)N1CCC1(C)C(=O)NS(=O)(=O)c1cccc(F)c1 (stereo not given)	-2.3	.	.	.	i	.	1.4
COc1cc(/C=N/NC(=O)/C(=C\c2ccc([N+](=O)[O-])cc2)NC(=O)c2ccccc2)cc(OC)c1O	.	?	?	.	.	.	-0.2
COc1cc(C)nc(NS(=O)(=O)c2ccccc2)n1	.	0.2	0%	-0.3	.	0.75	-1.7
CCC(C)NC(=O)CN(c1ccc(OC)cc1)S(=O)(=O)c1ccc(NC(C)=O)cc1 (stereo not given)	.	-0.8	11%	1.5	.	0.69	-0.8
COc1ccc(Cn2c(-c3ccc(OC)cc3)nc3c(c(=O)c4ccccc4n3C)c2=O)cc1	.	5.7	.	7.0	.	0.72	.
O=C(COc1ccc(Cc2ccccc2)cc1)c1ccc(F)cc1	-2.7	2.3	5%	2.5	i	0.71	-0.9
C/C(CC(=O)Nc1ccc(C)c(Cl)c1)=N\NC(=O)Cc1ccccc1	.	-0.3	1%	.	.	.	-5.3
COC(=O)NCc1cc2cc(Cl)ccc2[nH]1	-1.8	-4.4	13%	3.0	i	0.66	1.9
Cc1ccc(NC(=O)Cn2sc3nc(C)cc(C)c3c2=O)c(Cl)c1	-7.4	-3.1	-10%	3.2	i	0.66	1.9
COc1ccccc1NC(=O)NCCc1c[nH]c2ccccc12	6.3	-4.6	.	.	i	.	-14
O=C(C[n+]1cccc(CNC(=O)c2ccc(OC(F)F)cc2)c1)Nc1ccc(F)cc1	1.6	0.1	.	4.0	i	0.64	0.0
CCN1C(=O)[C@H]2[C@@H](c3ccc(-c4cc(C(C)=O)cs4)cc3)N3CCC[C@@]3(C(=O)OC)[C@H]2C1=O	.	.	.	-129	i	.	2.2
O=[N+]([O-])c1ccc(-c2nnc(-c3ccccc3)c(NCCCO)n2)cc1	.	2.5	-2%	5.9	.	0.7	5.1
Cc1ccc(N(CC(O)CN2C(=O)NC(C)(C)C2=O)S(=O)(=O)c2ccc(C)cc2)cc1 (stereo not given)	0.9	-1.7	.	1.9	i	0.67	5.0
CC(OC(=O)c1cccc(S(=O)(=O)N2CCCCCC2)c1)C(=O)Nc1ccc(S(N)(=O)=O)cc1 (stereo not given)	5.2	3.9	4%	4.1	i	0.63	0.9
COc1ccc(CN(C)CC(=O)Nc2cccc3ccccc23)cc1F	-0.2	-0.8	.	2.6	i	0.69	-0.7
O=C(CCc1nc(-c2ccccc2Cl)no1)NC1CCCC1	-0.8	?	-4%	0.5	i	0.69	0.2
Cc1cccc2c(=O)cc(C)n(CC(=O)N3CCCCC3)c12	.	-2.7	-4%	-4.8	.	0.69	0.0
Cc1nc(N2CCN(c3ccccn3)CC2)c2c(C)c(C(=O)N3CCN(c4cccc(Cl)c4)CC3)sc2n1	2.9	2.0	-84%	-1.1	i	0.72	-1.2
CC(=O)c1c(C)nc(-c2ccc3c(c2)OCO3)n1O	.	-1.2	7%	6.0	.	0.72	-2.0
CC(C)(C)NC(=O)C(c1ccc(-c2ccccc2)cc1)N(C[C@H]1CC[C@@H]([C@@H]2CC[C@H](CO)O2)O1)C(=O)c1ccc(C(C)(C)C)cc1 (stereo not given in full)	4.3	.	-2%	2.8	i	0.71	1.5
Cc1ccc(C)c(N2CCN(S(=O)(=O)c3ccc(-c4ccc(=O)[nH]n4)o3)CC2)c1	-5.2	1.5	.	-4.8	i	0.69	-0.6
Cc1ccc(SC[C@H](C)CN2CCC(NC(=O)OCc3ccccc3)CCC2=O)cc1 (stereo not given in full)	0.3	.	.	.	i	.	0.8
COc1cccc(-n2c(=O)c3c(C)c(C(=O)N(C)C)sc3n(CC(=O)NCC3CCCO3)c2=O)c1 (stereo not given)	0.0	1.0	.	2.0	i	0.69	3.4
COc1ccc(C(=O)Nc2c(Cl)cc(Cl)cc2C(=O)N2CCC(C)CC2)cc1	.	2.9	1%	1.0	.	0.69	1.8
O=C(C(Cl)Cl)N1CCN(c2ccccn2)CC1	.	2.6	.	3.3	.	0.64	0.2
Cc1csc(NC(=O)c2ccoc2C)n1	.	10	22%	-1.4	.	0.68	-3.2
CC(=O)c1ccc(N(C(=O)Cc2c[nH]c3ccccc23)C(C(=O)NC2CCCCC2)c2cccs2)cc1 (stereo not given)	.	-3.6	7%	3.8	.	0.69	8.8
CCOC(=O)c1ccc(-c2csc(NC(=O)CN3CCC(C)CC3)n2)cc1	2.2	-0.3	.	-2.7	i	0.71	3.1
Nc1[nH]nc2ncc3cc4ccccc4nc3c12	-0.4	-4.3	5%	-1.0	i	0.67	0.6
O=C(/C=C/c1ccc(Cl)cc1Cl)n1cccn1	.	-2.6	0%	-0.7	.	0.69	-0.6
CC(C)OC(=O)c1ccc(NC(=O)c2cncc(Br)c2)cc1	0.2	2.6	5%	.	i	.	4.5
O=C(CCSCCc1ccccn1)Nc1nccs1	-11	-3.3	10%	0.8	i	0.7	-2.2
COc1ccc(OC)c(NC(=S)N(CCc2c(C)[nH]c3ccc(C)cc23)Cc2cccs2)c1	7.0	-14	2%	5.9	i	0.78	-0.5
O=c1[nH]cnc2c1ncn2[C@@H]1O[C@H](COS(=O)(=O)O)[C@@H](O)[C@H]1O	-4.2	.	.	-1.3	i	.	-1.0
Nc1ccccc1C=C1Cc2ccccc2C1=O	6.5	.	-6%	-1.4	i	0.66	-2.5
COc1ccc(-c2sc3ccccc3c2C#CCCO)cc1	11	-0.1	.	.	i	.	0.9
O=C1CS/C(=N\c2ccccn2)N1C1CCCCC1	.	-1.2	-1%	.	.	.	-1.6
CCOCCCNC(=O)c1cc2c(=O)[nH]c3ccccc3c2s1	-0.6	-1.7	-10%	-105	i	0.68	-2.5
CC(C)NC(=O)c1ccc(CN2CCC(Cc3ccccc3)CC2)cc1	2.0	3.3	.	6.0	i	0.7	-5.4
CCc1c(C)nc(SCC(=O)NNC(=O)c2ccco2)[nH]c1=O	-0.4	-1.6	.	2.9	i	0.7	-0.2
CN1C2CCC1/C(=C\c1ccccc1F)C(=O)/C2=C/c1ccccc1F	.	6.4	.	0.1	.	0.63	1.4
C/C(=N\NC(=O)c1cccnc1)c1ccc(OC2OCCOC2Oc2ccc(/C(C)=N/NC(=O)c3cccnc3)cc2)cc1 (stereo not given)	0.1	-3.9	.	.	i	.	15

Limited to RanGTP-Impb inh and AF4-AF9 inh, for two of the compounds above:
| mol | RanGTP-Impb inh | AF4-AF9 inh |
| --- | --- | --- |
| CCc1c(C)nc(SCC(=O)NNC(=O)c2ccco2)[nH]c1=O | -1.6 | -0.4 |
| C/C(=N\NC(=O)c1cccnc1)c1ccc(OC2OCCOC2Oc2ccc(/C(C)=N/NC(=O)c3cccnc3)cc2)cc1 (stereo not given) | -3.9 | 0.1 |

Additional results:
SMILES	AF4-AF9 inh	RanGTP-Impb inh	Vif TR-FRET	UCH37 DUB inh	FGF22 binding	Ecoli growth	HNF4A DNA FP
COc1cccc(C2=NOC(C(=O)NCc3ccc(F)cc3)C2)c1 (stereo not given)	.	4.6	-6%	1.6	.	0.64	5.1
O=C(NNC(=O)c1cccc2ccccc12)c1ccc(Cl)c(Cl)c1	0.7	.	0%	0.7	i	0.68	-4.3
CN(C(=O)c1cc(S(=O)(=O)N2CCc3ccccc32)cn1C)C1CCCCC1	1.0	-0.2	.	2.6	i	0.71	3.9
O=C(COC(=O)CN1C(=O)C2CC=CCC2C1=O)Nc1cccc([N+](=O)[O-])c1 (stereo not given)	-7.6	.	-9%	.	i	.	1.4
O=C(CCN1C(=O)COc2ccccc21)NCCN1CCN(c2ccccc2F)CC1	-4.6	1.5	3%	3.3	.	0.67	0.6
Cc1ccc(-n2c(Cn3nc(C(F)F)cc3C(F)F)n[nH]c2=S)cc1	-62	0.5	8%	1.2	i	0.75	3.9
COc1ccc(C(NC(=O)C2CCN(CCOc3ccc(Cl)cc3Cl)CC2)c2cccs2)cc1 (stereo not given)	0.6	.	.	.	i	.	4.2
Cc1ccc(CC(=O)NCC(C)C)cc1	.	-0.7	5%	1.4	.	0.71	4.5
N/C(=N\OC(=O)COc1ccccc1)c1ccccn1	0.3	0.0	-8%	4.0	i	0.69	-1.9
COc1ccc(S(=O)(=O)Cc2ccc(C(=O)NC3CCCC3)o2)cc1	-1.5	-2.9	-2%	4.4	i	0.73	-1.1
N#CCCn1nc(-c2ccc(Br)cc2)cc1Nc1ccccc1NC(=O)C(F)(F)F	13	-4.3	1%	3.2	+	0.66	7.0
COc1ccc(S(=O)(=O)CC(=O)Nc2nnc(C(F)(F)F)s2)cc1	-2.5	-2.0	.	3.8	i	0.73	-1.9
O=C(Nc1nc2ccc(S(=O)(=O)N3CCOCC3)cc2s1)c1cccs1	-3.4	2.4	-12%	-1.5	i	0.64	-1.3
COc1cc(C2(c3ccc(O)c(OC)c3)C(=O)Nc3c(Br)cc(Br)cc32)ccc1O	0.3	9.3	.	4.4	i	0.62	-1.4
